RanGTP-Impb inh = inhibitors of RanGTP-importin-beta interaction, primary screen, biochemical, FRET, CFP-Ran, YFP-importin-beta, homogeneous. cell-free CFP-Ran/YFP-importin-beta FRET ratio. inhibition, % (test concentration not listed). hit rate 1.1% among 300,000. AID 2216;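 active means most replicates above 15%; inconclusive means exactly half above 15%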;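 further: 0% = DMSO wells and 100% = Ran loaded with GDP instead of GTP; wells of about 40 µL received 100 nL stock; the first replicate is given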
Ecoli rRNA inh = selective bacterial rRNA inhibition in E. coli. E. coli WT GFP vs humanized-ribosome RFP mutants, fluorescence, 24 h; hits give low values; DMSO median 0, no signal -100. GFP signal change (wild-type ribosome), % (test concentration not listed). hit rate 1.6% among 350,000. AID 720706;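 active means significant combined selectivity score with lowered wild-type GFP, culture density cut under 30%, mutant RFP and density less affected; inactive means any of these conditions unmet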; further: one replicate is shown; some compounds called inactive have numbers as strong as hits
Vif TR-FRET = HIV-1 Vif–A3G interaction blockers – biochemical, TR-FRET, GST-Vif 1-94, biotin-A3G peptide, dose response retest, primary screen (AID 1117319); TR-FRET GST-Vif / biotin-A3G peptide binding; higher % means a stronger effect; test concentration not given here; strong numbers were not always called active; inhibition, %, or IC50 in µM where a hit was titrated; hit rate 0.57% among 260,000;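 active means above the screen mean plus three standard deviations and confirmed in dose response; inconclusive means results disagree or hit not tested in dose response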;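 further: Vif residues 1-94 fused to GST binding biotinylated APOBEC3G peptide 110-148; 0% = full assay without inhibitor and 100% = GST in place of GST-Vif; retest series ran down from 100 µM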
Calb FLC = affects C. albicans growth with fluconazole; growth inhibition, % (no concentration beside the values); AID 1979; C. albicans CaCi-2 (fluconazole-resistant clinical isolate) + fluconazole, Alamar Blue growth, 48 h; hit rate 0.57% among 300,000;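 active means most replicates above 75%; inconclusive means exactly half above 75%; inactive means most below 75%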;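 further: all wells also contain fluconazole at 8 µg/ml as a sub-toxic cotreatment; 0% = median of DMSO wells and 100% = median of geldanamycin control wells; wells of about 8 µL received 7.5 nL stock; the first replicate is given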
AF4-AF9 inh = MLL-AF4/AF9 protein interaction inhibition; P42568; AlphaScreen, biotin-AF4 peptide binding to FLAG-AF9; inhibition, % at 10 µM; hit rate 0.47% among 350,000; AID 651704;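 active means every replicate reaching a set inhibition limit, whatever the replicate mean, cut at about 25% in these data; inconclusive means mean inhibition reaches that limit but some replicates miss it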;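 further: 0% = plate neutral control median and 100% = total signal loss; the record names both 10 and 1 µM as test concentration; the first replicate is given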
Target sequence (P42568 whole entry, looked up): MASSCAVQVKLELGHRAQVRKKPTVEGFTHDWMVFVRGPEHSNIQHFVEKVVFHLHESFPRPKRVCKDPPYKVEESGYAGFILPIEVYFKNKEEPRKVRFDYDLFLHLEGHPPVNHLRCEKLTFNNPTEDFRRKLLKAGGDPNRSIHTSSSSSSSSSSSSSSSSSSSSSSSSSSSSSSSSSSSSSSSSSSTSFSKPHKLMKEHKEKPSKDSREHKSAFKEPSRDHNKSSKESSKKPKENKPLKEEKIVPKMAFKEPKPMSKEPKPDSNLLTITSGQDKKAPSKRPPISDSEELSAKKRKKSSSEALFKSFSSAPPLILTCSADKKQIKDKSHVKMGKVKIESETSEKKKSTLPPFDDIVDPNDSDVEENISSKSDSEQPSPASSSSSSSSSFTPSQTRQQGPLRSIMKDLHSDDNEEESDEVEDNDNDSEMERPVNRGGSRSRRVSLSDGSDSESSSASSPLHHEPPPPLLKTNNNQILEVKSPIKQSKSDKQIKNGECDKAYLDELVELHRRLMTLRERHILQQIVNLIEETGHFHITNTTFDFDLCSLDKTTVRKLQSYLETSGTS
Beta cell apopt = blocks beta cell apoptosis. hit rate 0.8% among 300,000. protection from apoptosis, % (concentration not given with the values). INS-1E cytokine-induced death, ATP luminescence, 48 h; percent of positive-control rescue, neutral wells zero. AID 435005;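 active means all replicates at 75% or more, or half of them and the mean; inconclusive means half reach 75% but not the mean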;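 further: 0% = cytokine-treated negative control wells and 100% = positive control rescue; higher means more ATP so stronger rescue from cytokine killing; wells of about 40 µL received 100 nL stock; the first replicate is given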
Bfl-1 A1 inh = inhibitors of the anti-apoptotic protein A1, read as caspase activation. hit rate 0.066% among 330,000. AID 2462. MEF A1-2A-BIM cells, Caspase-Glo 3/7 luminescence, 3 h; percent of clofoctol response, vehicle zero. caspase activation, % (no concentration beside the values);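 active means over half of replicate activation scores above 10%, or exactly half above 10 with the replicate mean above 10; inconclusive means replicate mean below 10 yet half the replicates above 10; inactive means over half of replicates below 10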;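 further: wells of about 30 µL received 50 nL stock; many hits fall short of the cut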
T cruzi inh = blocks replication of Trypanosoma cruzi; T. cruzi beta-gal in NIH3T3, luminescence, 90 h; inhibition, % (concentration not given with the values); hit rate 1.4% among 300,000; AID 1885;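 active means mean inhibition across valid replicates above about 55%, limit read from the data; inconclusive means mean below that limit but half or more replicates reach it; inactive means mean below it, under half of replicates reach it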;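 further: signal also drops with host cell toxicity which is not excluded here; 0% = plate median of DMSO wells and 100% = zero luminescence signal; higher percent means less beta-gal luminescence so fewer parasites; stock transfer was 50 nL into about 50 µL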
Ecoli rRNA inh OD600 = further read-out of Ecoli rRNA inh, marked with its call; OD600 change, %; measured here: OD600 growth;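 optical density of the mix in the first replicate; 0 = DMSO median and -100 = no signal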
Ecoli rRNA inh RFP = recorded beside Ecoli rRNA inh, whose call it bears; RFP signal change, %; measured here: RFP humanized mutant strains;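 first replicate; 0 = DMSO median and -100 = no signal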
* marks the source's active call; other numbers are inactive results; ? = inconclusive; / = not tested or not shown; & = joins results of further samples. This is a subset; rates above refer to the full screens.

no. | compound | Vif TR-FRET | AF4-AF9 inh | Beta cell apopt | Ecoli rRNA inh RFP | Calb FLC | RanGTP-Impb inh | T cruzi inh | Ecoli rRNA inh | Bfl-1 A1 inh | Ecoli rRNA inh OD600
1 | O=C(NC(Cc1c[nH]c2ccccc12)C(=O)O)/C(=C/c1ccco1)NC(=O)c1ccccc1 (stereo unspecified) | 23% | 0.9 | -3 | 9.4 | -3 | 1.9 | 0 | 16 | -0.9 | 14
2 | COC(=O)c1ccncc1C(=O)Nc1ccc(F)cc1 | 0% | / | -9 | / | -6 | -0.3 | -5 | / | 0.4 | /
3 | COc1ccccc1N1CCN(C(=O)c2cc(-c3ccc4c(c3)OCO4)on2)CC1 | -1% | 4.0 | 4 | 8.2 | 3 | 1.1 | 2 | -16 | -1.0 | -2
4 | Nc1nc2nc(-c3ccc(Cl)cc3)cc(C(F)(F)F)n2n1 | -2% | -0.7 | -3 | -4.8 | 11 | ? | 10 | 7 | 0.1 | 10
5 | CC(C)(C)C(=O)c1sc(Nc2ccccc2)nc1N | 31% | -3.7 | 4 | -0.5* | 6 | 1.0 | 0 | -39* | -0.8 | -16*
6 | C[C@H](CO)N1C[C@H](C)[C@@H](CN(C)C(=O)Nc2ccc3c(c2)OCO3)Oc2ccc(NC(=O)CCC(F)(F)F)cc2C1=O | / | -0.3&-1.0 | -2 | -1.5&6.8 | / | / | / | -1&7 | 0.7 | -3&7
7 | CCN(CC)CCN1C(=O)C(=O)/C(=C(/O)c2ccc(S(=O)(=O)N3CCOCC3)cc2)C1c1ccc(Cl)cc1 (stereo unspecified) | / | -2.3 | -3 | 3.0 | -6 | 0.8 | 10 | 3 | -0.5 | 4
8 | CC(=O)Nc1ccc(NC(=O)COC(=O)C2CCC(C(C)(C)C)CC2)cc1 (stereo unspecified) | -16% | 2.4 | 0 | -0.7 | / | / | / | -5 | 1.6 | -21
9 | CC1CC1C(=O)OCC(=O)Nc1cccc(S(=O)(=O)NC2=NCCCCC2)c1 (stereo unspecified) | 1% | -1.5 | -6 | -1.6 | 8 | 0.8 | 7 | 8 | -0.3 | 6
10 | COc1c[nH]n(-c2ccccc2)c(=O)c1=O | / | / | -7 | -1.6 | -5 | 2.3 | -14 | 10 | 1.3 | 11
11 | Cc1cc([N+](=O)[O-])ccc1NCc1cccc2ccccc12 | / | -49 | 5 | 2.6 | -10 | -0.7 | 38 | -13 | -0.2 | 3
12 | CCCCCCc1nc2c(=O)[nH]c3ccccc3c2o1 | 65% | / | 0 | / | -3 | 3.5 | -13 | / | 0.2 | /
13 | CCc1cc2c(C)ccc(C)c2nc1SCC(=O)Nc1c[nH]c(=O)[nH]c1=O | -52% | -0.5 | 10 | -3.0 | 15 | 6.4 | 7 | 2 | -0.2 | 2
14 | CC(C)(C)C(=O)N1NC(=Nc2ccccc2)SC1(C)C | 25% | -2.3 | 8 | -2.1 | -2 | -1.6 | -10 | 1 | 0.4 | 7
15 | Cc1cccc(C)c1OCC(=O)NNC(=O)CCNC(=O)c1ccc(Br)cc1 | / | -3.7 | 3 | 4.3 | -15 | 1.8 | -15 | 0 | -0.2 | 5
16 | O=C(CCCOc1ccccc1)NCc1ccco1 | 4% | / | -4 | / | 10 | 4.1 | -9 | / | -0.1 | /
17 | C=CCC[C@H](Cc1ccc(F)cc1)C(=O)O[C@H](CNC(=O)[C@@H](CC=C)CC(=O)N(CCO)Cc1ccccc1)c1ccccc1 | 5% | -1.0 | 17 | 5.8 | / | / | / | 24 | 0.3 | 5
18 | O=C(C/C=N\OCc1ccc(Cl)cc1Cl)Nc1ccccc1 | 4% | -2.0 | -4 | 2.4 | 7 | 0.0 | 5 | -2 | -0.1 | 2
19 | CS(=O)(=O)Nc1ccc(C(=O)Nc2ccccc2C(=O)N2CCCC2)cc1 | -4% | / | -5 | / | -6 | 5.0 | -20 | / | 0.4 | /
20 | Cn1c(CN2CCCCC2)nc2cc(NC(=O)c3ccccc3Cl)ccc21 | -3% | ? | 3 | -5.8 | ? | 2.6 | -12 | 0 | -0.4 | 2
21 | CCN1CCN(S(=O)(=O)c2ccc(C(=O)Nc3sc4c(c3C(N)=O)CCN(CC)C4)cc2)CC1 | / | -1.7 | -4 | -1.6 | 2 | 58* | 6 | 0 | 0.0 | 14
22 | Cc1nn(Cc2ccccc2)c(C)c1NC(=O)c1cc(-c2cccs2)on1 | 12% | / | 11 | / | 7 | 2.5 | -6 | / | 0.2 | /
23 | Cc1ccc(C)c(NC(=O)c2cnn(-c3ccccc3)c2C)c1 | 1% | 3.3 | 4 | 0.3 | -4 | 3.2 | 4 | 6 | -3.2 | 10
24 | c1ccc2c(c1)[nH]c1c(N3CCCC3)ncnc12 | -2% | / | 47 | / | 11 | -3.8 | 15 | / | 0.5 | /

Some of these compounds in order of heavy-atom count, smallest number first:
no. | compound | Vif TR-FRET | AF4-AF9 inh | Beta cell apopt | Ecoli rRNA inh RFP | Calb FLC | RanGTP-Impb inh | T cruzi inh | Ecoli rRNA inh | Bfl-1 A1 inh | Ecoli rRNA inh OD600
24 | c1ccc2c(c1)[nH]c1c(N3CCCC3)ncnc12 | -2% | / | 47 | / | 11 | -3.8 | 15 | / | 0.5 | /
16 | O=C(CCCOc1ccccc1)NCc1ccco1 | 4% | / | -4 | / | 10 | 4.1 | -9 | / | -0.1 | /
14 | CC(C)(C)C(=O)N1NC(=Nc2ccccc2)SC1(C)C | 25% | -2.3 | 8 | -2.1 | -2 | -1.6 | -10 | 1 | 0.4 | 7
18 | O=C(C/C=N\OCc1ccc(Cl)cc1Cl)Nc1ccccc1 | 4% | -2.0 | -4 | 2.4 | 7 | 0.0 | 5 | -2 | -0.1 | 2
23 | Cc1ccc(C)c(NC(=O)c2cnn(-c3ccccc3)c2C)c1 | 1% | 3.3 | 4 | 0.3 | -4 | 3.2 | 4 | 6 | -3.2 | 10
22 | Cc1nn(Cc2ccccc2)c(C)c1NC(=O)c1cc(-c2cccs2)on1 | 12% | / | 11 | / | 7 | 2.5 | -6 | / | 0.2 | /
15 | Cc1cccc(C)c1OCC(=O)NNC(=O)CCNC(=O)c1ccc(Br)cc1 | / | -3.7 | 3 | 4.3 | -15 | 1.8 | -15 | 0 | -0.2 | 5
21 | CCN1CCN(S(=O)(=O)c2ccc(C(=O)Nc3sc4c(c3C(N)=O)CCN(CC)C4)cc2)CC1 | / | -1.7 | -4 | -1.6 | 2 | 58* | 6 | 0 | 0.0 | 14
17 | C=CCC[C@H](Cc1ccc(F)cc1)C(=O)O[C@H](CNC(=O)[C@@H](CC=C)CC(=O)N(CCO)Cc1ccccc1)c1ccccc1 | 5% | -1.0 | 17 | 5.8 | / | / | / | 24 | 0.3 | 5

Next structures.
no. | compound | Vif TR-FRET | AF4-AF9 inh | Beta cell apopt | Ecoli rRNA inh RFP | Calb FLC | RanGTP-Impb inh | T cruzi inh | Ecoli rRNA inh | Bfl-1 A1 inh | Ecoli rRNA inh OD600
25 | Cc1cc(N2CCCCC2)n2nc(C)c(-c3ccccc3)c2n1 | -1% | / | 1 | / | -8 | 2.6 | 22 | / | 0.3 | /
26 | CCN(CC)C(=O)c1c(C)[nH]c(=S)c(C#N)c1-c1ccco1 | / | -8.5 | -1 | 11 | 1 | 3.8 | -3 | 17 | -0.7 | 11
27 | CCCCN(C(=O)c1ccco1)c1c(N)n(CCC)c(=O)[nH]c1=O | 3% | -1.4 | 1 | 7.8 | / | / | / | 20 | -1.4 | 11
28 | COc1ccc(NC(=O)c2noc3c2CCCCC3)cc1 | 4% | -4.8 | -14 | -6.3 | -12 | -2.5 | 8 | -2 | -4.5 | 1
29 | CNC(=O)c1c(NC(=O)CCS(=O)(=O)c2ccc(C)cc2)sc(C)c1C | -3% | -2.3 | -7 | -0.1 | 8 | 1.3 | -7 | 6 | 0.1 | 11
30 | CC1CCN(CCCNC(=O)c2ccc(CSCc3cccc(Cl)c3)o2)CC1 | -5%&0% | / | -5 | / | -11 | 12 | 24 | / | 0.9 | /
31 | CC(C)C(=O)NNC(=O)CC(=O)Nc1ccccc1C(=O)O | -3% | -0.8 | -9 | -5.5 | -3 | -2.3 | -5 | 14 | -0.4 | 8
32 | CSc1nnc(-c2ccccc2)o1 | -3% | / | 5 | / | 6 | -1.1 | 1 | / | -0.4 | /
33 | O=C(NCc1cccnc1)c1ccc(-c2cccc(Cl)c2Cl)o1 | / | -1.7 | 0 | 3.2 | 61* | 8.8 | 58* | -33 | 0.5 | -44
34 | O=C(NCC(c1ccco1)N1CCc2ccccc2C1)c1ccc([N+](=O)[O-])cc1 (stereo unspecified) | 5% | -2.0 | -1 | -1.7 | 1 | 1.7 | 18 | 0 | 1.3 | -3
35 | COc1ccc(OC)c(NC(=O)C2CC(/C=C/c3ccccc3)=NO2)c1 (stereo unspecified) | 3% | -2.8 | 2 | 0.7 | -2 | 3.7 | -10 | 12 | 0.3 | 14
36 | O/N=C(\c1ccc(Cl)cc1)c1ncc(C(F)(F)F)cc1Cl | -3% | / | -12 | / | -7 | ? | / | / | 0.1 | /
37 | Cc1cccc(CN2CCN(C(=O)c3ccccc3F)CC2)c1 | -3% | / | 6 | / | / | 2.2 | 3 | / | 1.9 | /
38 | N/C(=N\OC(=O)C12CC3CC(CC(C3)C1)C2)c1cccnc1 | 11% | / | 1 | / | 0 | 4.3 | 18 | / | 0.2 | /
39 | OCC1(CCc2ccccc2)CCN(Cc2cc(Cl)ccc2O)CC1 | -6% | -1.6 | -5 | -10 | -2 | 4.4 | 10 | -47 | 0.2 | -71
40 | Cc1oc2c(CN3CCCC(C)C3)c(O)ccc2c(=O)c1-c1ccccc1 (stereo unspecified) | 2% | 3.8 | -5 | -0.7 | -3 | -1.4 | -1 | 10 | 0.3 | 10
41 | COC(=O)c1ccccc1NC(=O)COc1ccc2c(c1)OCO2 | / | -0.6 | 0 | 4.8 | 16 | 7.0 | 16 | 17 | 0.1 | 13
42 | O=c1n(-c2ccccc2)c(=O)n2n1CC(O)C2 | ? | -2.5 | -2 | -0.2 | 0 | 3.8 | -15 | 3 | 0.4 | 6
43 | COC(=O)CCC(=O)Nc1ccccc1C(N)=O | 26% | / | -1 | / | 0 | 4.2 | -3 | / | 0.1 | /
44 | CCOC(=O)c1nn(-c2ccc(C)cc2)c2nc(Nc3ccccc3)cc(=O)n12 | 12% | / | -3 | / | 2 | 0.6 | 8 | / | 0.0 | /
45 | CCN1C(=O)/C(=C\N2CCN(c3ccc(F)cc3)CC2)SC1=S | 5% | -0.4 | -3 | 25 | 0 | -0.7 | 12 | 20 | 0.1 | 19

High-throughput results: PubChem BioAssay, several laboratories
